Compound activity deposited in PubChem BioAssay by National Center for Advancing Translational Sciences (NCATS).
VACV mCherry inh = vaccinia inhibition (mCherry reporter). Vaccinia virus mCherry reporter infection, fluorescence; about a quarter of the inactives have no number. AID 720579. Potency, µM (titrated, usually from 36.5 µM), for the others: top-dose activity change, negative = inhibition, actives largely listed as inhibitors. 310,000 tested, 0.63% active; active = well fitted inhibition curve with a large enough effect; inconclusive = small, poorly fitted or top-dose-only effect; inactive = no such curve, though single readings can be large or run the other way; tested in A549 cells; further: nearly all actives have a fitted effect of over 35% in size; inactives centre near -10
Vaccinia Venus = vaccinia inhibition (Venus reporter). Potency, µM (highest dose often 36.5 µM), inactives show at the top dose activity change, negative = inhibition, most hits filed as inhibitors. AID 720580. Vaccinia virus Venus reporter expression, fluorescence. 330,000 tested, 0.46% active; active means well fitted inhibition curve with a large enough effect; inconclusive means small, poorly fitted or top-dose-only effect; inactive means no such curve, though single readings can be large or run the other way; tested in A549 cells; further: nearly all actives have a fitted effect of over 30% in size; inactives centre near -10
* = called active by the depositor; i = inactive; ? = inconclusive; / = not tested or not shown. On the % scale 0 is the no-effect control and ±100 the full control effect; potency means the concentration at half of the fitted maximal effect.

Order of results: Vaccinia Venus | VACV mCherry inh
COc1ccc(C(CNC(=O)Nc2ccc(Cl)cc2)N2CCN(C)CC2)cc1 (configuration not stated)
    -16.3% | -2.2%
Clc1ccc2nncn2n1
    ? | ?
Cn1cnc(S(=O)(=O)N2CCN(C(c3ccc(F)cc3)c3ccc(F)cc3)CC2)c1
    5.4% | 0.9%
COc1ccc(-c2nc3c(c(SCC(=O)Nc4ccc(C(=O)O)cc4)n2)Cc2ccccc2O3)cc1
    -10.5% | -14.5%
COc1ccc(CCN(Cc2ccccn2)C(=S)Nc2cccc(SC)c2)cc1OC
    -8.2% | -17.1%
Cc1ccc(-n2ncc3c2CCCC3NC(=O)c2cnccn2)cc1C (configuration not stated)
    -16.8% | -9.1%
CC(=O)O/N=C1\C(=O)N(Cc2ccc(C)cc2)c2ccccc21
    -2.2% | -8.5%
C/C(=N/NC(=O)C(O)(c1ccccc1)c1ccccc1)c1ccc([N+](=O)[O-])o1
    ? | ?
O=C(CNC(=O)c1cccs1)c1ccc(F)cc1
    -2.6% | -16.8%
O=C1NC(Cc2ccccc2)c2nc3ccccc3c(=O)n2-c2cc3ccccc3cc21 (configuration not stated)
    ? | -19.2%
O=C(c1ccc2[nH]c3c(c2c1)CCCC3)N1CCN(c2ccc(F)cc2)CC1
    -18.3% | -17.3%
O=C(COc1ccccc1F)NC1CC1
    -3.9% | -13.9%
Cc1c(C(=O)N(Cc2cccc(F)c2)C2CCS(=O)(=O)C2)oc2cc(Br)ccc12 (configuration not stated)
    -16.0% | -12.7%
CCCCN(CCCC)C(=O)CN(C)S(=O)(=O)c1ccc2c(c1)n(C)c(=O)c(=O)n2C
    -2.5% | -5.7%
Cc1ccc(C)c(C(=O)COC(=O)c2nn(C)c(=O)c3ccccc23)c1
    -3.8% | -13.3%
O=C(N/N=C1\CC2CC=CC12)c1ccc(O)cc1 (configuration not stated)
    -0.8% | -21.9%
CC(=O)Nc1nonc1-c1nnc(SCc2ccccc2C)n1C
    -8.4% | -6.7%
C=CCC1(CC=C)CCCN1C(=O)c1ccc2oc(CCCC)nc2c1
    -28.0% | -13.9%
[N-]=[N+]=NC(c1ccccc1)c1nc2ccccc2[nH]c1=O (configuration not stated)
    -14.3% | -19.8%
CCSc1ncc(/C=N/Nc2ccccc2)n1C
    -8.8% | -27.3%
COC(=O)C1=C(N)OC2=C(C(=O)CCC2)C1c1ccccc1OC (configuration not stated)
    -1.3% | i
COCCCNC(=O)C1CCN(c2nc3ccc(Cl)cc3[nH]2)CC1
    -2.7% | -16.5%
COc1cccc(Nc2nc3cc(C)ccc3cc2C)c1
    -17.5% | ?
C=CCN(CC=C)C(=S)Nc1ccc(OC)c(OC)c1
    -13.3% | i
COc1ccc(C(=O)CC(=O)C(=O)Nc2ccc(C)c(C)c2)cc1
    -6.6% | i
C[C@@H]1CN([C@@H](C)CO)C(=O)c2cc(Br)cnc2O[C@H]1CN(C)Cc1ccccc1C(=O)O
    -6.3% | i
COCCn1ccc2c(OCC(=O)Nc3cc(OC)ccc3OC)cccc2c1=O
    -28.5% | -18.7%
Cc1ccc(NC(=O)COC(=O)c2ccc(S(=O)(=O)N3CCCC3)cc2)cc1
    -8.6% | -15.0%
COC(=O)CSc1nnc(CNc2ccc(Cl)cc2)n1-c1ccccc1
    0.4% | -7.2%
CC(C)(C)[C@H]1COC(=O)CC/C=C\C[C@H](CC(=O)N(CCO)Cc2ccccc2)C(=O)N1
    -8.6% | i

One compound at a time, as listed above. Order of values: Vaccinia Venus | VACV mCherry inh
`C[C@@H]1CN([C@@H](C)CO)C(=O)c2cc(Br)cnc2O[C@H]1CN(C)Cc1ccccc1C(=O)O` as listed: -6.3% | i
`CCSc1ncc(/C=N/Nc2ccccc2)n1C` as listed: -8.8% | -27.3%

Remaining list, next part
Order of results: Vaccinia Venus | VACV mCherry inh
Cc1noc(C)c1NC(=O)N(C)C[C@H]1Oc2ccc(NC(=O)C3CC3)cc2C(=O)N([C@H](C)CO)C[C@@H]1C
    -12.1% | -18.1%
Cc1ccccc1-c1nc(SCc2ccccn2)c2c(=O)n(C)c(=O)n(C)c2n1
    -10.9% | -0.9%
COc1ccc(NC(=O)C2=Cc3ccccc3OC2)cc1
    -12.0% | -6.4%
COc1ccc(C)cc1NC(=O)Cn1cnnn1
    0.9% | i
CC(NCc1ccc(-c2ccccc2)cc1)C(O)c1ccccc1 (configuration not stated)
    ? | -19.1%
Nc1nc2c(c(=O)[nH]1)N(C=O)C(CNc1ccc(C(=O)NC(CCC(=O)O)C(=O)O)cc1)CN2 (configuration not stated)
    -14.5% | -14.8%
CS(=O)(=O)N1CC(C(=O)NN)Oc2ccc(Cl)cc21 (configuration not stated)
    -0.8% | -9.0%
C[C@H](CO)N1C[C@H](C)[C@H](CN(C)C(=O)Oc2cccc3ccccc23)OCc2cnnn2CCCC1=O
    -13.4% | -13.0%
COc1ccccc1N1CCN(CCCNC(=O)c2cnn(-c3cccc(Cl)c3)c2C2CCN(C(=O)OC(C)(C)C)CC2)CC1
    -25.8% | ?
CCOc1ccc(N(CC(=O)NC2CCCCC2)S(=O)(=O)c2ccccc2)cc1
    -14.0% | -1.3%
O=C(CCCn1c(=O)c2ccccc2n(Cc2ccc(F)cc2Cl)c1=O)NCCc1ccc(Cl)cc1
    -14.1% | -24.3%
Cc1ccc(-c2noc(CCC(=O)Nc3cccc(C(=O)NC4CC4)c3)n2)cc1
    -9.7% | i
CC(C)=CCCC1(C)C=Cc2c(c(C)cc3c2[nH]c2cc(O)ccc23)O1 (configuration not stated)
    -14.2% | -11.7%
C/C(N)=C(/C#N)C(=O)COC(=O)CNC(=O)c1ccc(Cl)cc1Cl
    3.8% | -1.3%
Cc1cc(C)n(C(C)CNS(=O)(=O)c2ccccc2)n1 (configuration not stated)
    -0.4% | i
CCc1ccc(NC(=O)CSc2nccn2-c2ccc(F)cc2)cc1
    -19.8% | -1.8%
O=C(CCc1nc2ccccc2c(=O)[nH]1)N1CCN(S(=O)(=O)c2cccc(F)c2)CC1
    -16.3% | -2.6%
COc1ccc(Cn2c(O)c(C=Nc3ccc(C)cc3)c3ccccc3c2=O)cc1
    23.6% | -10.2%
O=C(NCCCn1ccnc1)c1ccc(COc2ccccc2)o1
    -15.9% | -5.7%
Cc1ccccc1Cn1nc(C)c(NC(=O)c2cc(-c3ccc(F)cc3)on2)c1C
    -7.7% | -11.6%
Cc1ccc(CNC(=O)CCNS(=O)(=O)c2ccc(C)cc2)cc1
    -9.4% | -15.8%
C[C@@H]1CN([C@@H](C)CO)C(=O)c2cc(Br)cnc2O[C@H]1CN(C)C(=O)Nc1ccc2c(c1)OCO2
    -2.4% | i
CC(C)c1ccc(NC(=O)CCC(=O)NCc2ccco2)cc1
    -13.1% | -3.0%
Brc1ccc(Oc2ccc(Br)cc2Br)c(Br)c1
    -4.5% | i
CCNC(=S)N/N=C/c1c(Cl)cccc1Cl
    -9.1% | -12.1%
CCC1CN(C(=O)N2CCC(C(=O)NCCc3ccccc3OC)CC2)c2ccccc2O1 (configuration not stated)
    -10.3% | i
O=C(COc1ccccc1)Nc1ccc(N2CCN(C(=O)c3cccs3)CC2)cc1
    4.3% | 1.3%
COc1ccc(NC(=O)CN(C)CC(=O)Nc2ccc(Cl)c(S(=O)(=O)N(C)C)c2)cc1
    -8.8% | i
CCn1c(CC(=O)Nc2cccc(OC)c2)nnc1SCC(=O)Nc1nccs1
    -13.6% | -14.3%
O=C(CSc1ncccn1)NCCC1=CCCCC1
    2.7% | i
COC(=O)C1=C(c2cc3ccccc3s2)C[C@@H]2CC[C@H]1N2C(=O)N1CCCCC1
    ? | i
CCOC(=O)c1sc2ncn(C(C)C(=O)OCC)c(=O)c2c1C (configuration not stated)
    4.8% | /
COc1nccnc1NS(=O)(=O)c1ccc(NCc2ccccc2O)cc1
    -1.9% | -8.7%
CC1CCCCN1C(=O)CSc1nc2c(c(=O)n(C)c(=O)n2C)n1C (configuration not stated)
    2.1% | -6.4%
COc1ccc(Cn2c(=O)oc3ccccc32)cc1OC
    -26.9% | -14.0%
O=C(CCN1CCOCC1)N1CCCC(Nc2cccc(F)c2)C1 (configuration not stated)
    -11.2% | -24.0%
CCOC(=O)c1[nH]c(C)c(C(=O)NCc2ccc(OC)cc2)c1C
    -0.1% | -10.5%
CCn1c(SCC(=O)NCCc2ccc(OC)c(OC)c2)nc2c1c(=O)n(C)c(=O)n2C
    -6.8% | -5.6%
O=S(=O)(N/N=C/c1c(F)cccc1Cl)c1ccccc1
    -17.0% | /
O=C(c1ccc(-n2cccc2)cc1)N1CCCCC1
    -13.9% | i
Cc1ccc(S(=O)(=O)CCC(=O)OCC(=O)N(C)CC(=O)Nc2ccc(F)cc2)cc1
    6.0% | -0.9%
Brc1cc2c(cc1Cn1c(-c3cncs3)nc3ccccc31)OCO2
    -3.2% | /
O=C(Cn1nc([N+](=O)[O-])nc1Br)NC(c1ccccc1)c1ccccc1
    -7.9% | -13.8%
O=C(COc1ccc(Br)cc1Cl)Nc1ncn[nH]1
    -4.7% | -4.7%
O=[N+]([O-])c1cccc(N/N=C/c2cccc3ccccc23)c1
    -12.1% | -28.2%
O=C(Nc1ccncc1)c1cccc(S(=O)(=O)N2CCc3ccccc32)c1
    -19.2% | -28.4%
Nc1nc2c([nH]c(=S)n2C2OC(CO)C(O)C2O)c(=O)[nH]1 (configuration not stated)
    0.0% | i
O=C(C1CCC1)N1CCCc2cc(S(=O)(=O)N3CCN(c4ccccc4)CC3)ccc21
    -17.8% | -4.7%
COc1ccc(NS(=O)(=O)c2cc(NC(=O)COc3ccccc3)ccc2N2CCOCC2)cc1
    -6.8% | -4.2%
O=C(/C=C/c1ccccn1)c1cc(Cl)cc(Cl)c1O
    3.3% | i
COC(=O)NC(C)N1C(=O)C2C3C=CC(C3)C2C1=O (configuration not stated)
    -17.2% | -2.5%
COc1ccc(-c2coc3cc(O)ccc3c2=O)c(OC)c1O
    17.0% | -2.4%
COc1cc(OC)c(N(C)S(=O)(=O)c2cccc(C(=O)Nc3nccs3)c2)cc1Cl
    -20.0% | -8.6%
Cc1cccc(NC(=O)c2nc[nH]c2C(=O)Nc2ccccc2[N+](=O)[O-])c1
    -18.3% | ?
CCc1ccc(NC(=O)C2CCC(CNS(=O)(=O)c3ccc4c(c3)C(C)(C)C(=O)N4C)CC2)cc1 (configuration not stated)
    -15.1% | i
COc1ccc2c(c1)c(C(=O)CN1CCCCC1)c(C)n2C
    2.0% | -2.5%
Cc1cc2nc(-c3ccc[nH]c3=O)n(Cc3ccc(F)cc3)c2cc1C
    -16.1% | -12.3%
Cc1ccccc1NS(=O)(=O)c1ccc(Br)s1
    -8.9% | -4.3%
O=c1[nH]c(=O)n(CCc2ccc(F)cc2)c(O)c1/C=N/N1CCCCC1
    -8.6% | i
Cc1nn2c(-c3ccc(F)cc3)ccnc2c1Br
    -14.9% | i

More entries:
Order of results: Vaccinia Venus | VACV mCherry inh
Cc1cc(C)n2nc(SCC(=O)NC(=O)NCc3ccco3)nc2n1
    -2.1% | i
Cc1cc(C)n(-c2nnc(NCc3ccc(Cl)cc3)nn2)n1
    -24.6% | ?
Cc1cc(F)ccc1NC(=O)CCCN(C)S(=O)(=O)c1ccc(F)cc1
    -9.8% | i
O=C(Nc1ccccc1F)c1ccc2c(Cl)c3c(nc2c1)CCC3
    -8.2% | -1.7%
Cc1[nH]c2ccccc2c1C(=O)COC(=O)c1c(-c2ccccc2Cl)noc1C
    ? | ?
O=C(NCC1COc2ccccc2O1)C1C2C=CC3(CN(Cc4cccs4)C(=O)C13)O2 (configuration not stated)
    ? | -15.1%
CCN(CC)CCN1C(=O)C(=O)/C(=C(/O)c2ccc(S(=O)(=O)N3CCOCC3)cc2)C1c1ccccc1 (configuration not stated)
    -15.6% | -3.9%
COc1cc(S(=O)(=O)N2CCOCC2)cc(C(=O)OCC(=O)NCc2ccco2)c1OC
    4.7% | i
CNC(=S)Nc1cccc(Cl)c1C
    -11.9% | -4.3%
CCc1nn2c(=O)cc(COC(=O)c3cccc(NC(=O)c4ccccc4C)c3)nc2s1
    -16.9% | -23.5%
Cc1ccc(-n2c(N)c(C(=O)NCc3ccco3)sc2=S)cc1
    -16.4% | ?
COc1cccc(/C=N/NC(=O)CN(CCc2ccccc2)S(=O)(=O)c2ccc(NC(C)=O)cc2)c1
    -15.5% | -1.7%
COc1cccc(/C=N/Nc2ccc(S(=O)(=O)Nc3ccccc3C(=O)O)cc2[N+](=O)[O-])c1O
    8.6% | i
CCc1ccc(NC(=O)c2ccc3c(c2)c(C)c(C)n3Cc2ccccc2)cc1
    -27.8% | -20.0%
Cc1cccc(N(CC(=O)NCc2ccco2)C(=O)CCC(=O)Nc2nccs2)c1C
    -19.5% | i
Nc1ccc(S(=O)(=O)NC2=NCCCCC2)cc1
    -9.3% | -2.6%
Cc1cc(C)n(-c2ccc(C(=O)OCC(=O)Nc3ccc(S(N)(=O)=O)cc3)cc2)n1
    -15.0% | i
Cc1nc2sc(C)c(C)n2c(=O)c1S(=O)(=O)NCCc1ccc(Cl)cc1
    -10.3% | -11.0%

Another view of part of the listing above.
SMILES | Vaccinia Venus | VACV mCherry inh
Cc1cc(C)n(-c2nnc(NCc3ccc(Cl)cc3)nn2)n1 | -24.6% | ?
Cc1cc(F)ccc1NC(=O)CCCN(C)S(=O)(=O)c1ccc(F)cc1 | -9.8% | i
